Bioassay records: PubChem BioAssay, National Center for Advancing Translational Sciences (NCATS)
Rango release inh = prevents RanGTP from dissociating the Rango-importin beta complex; Potency, µM (series often up to 46.1 µM), without a hit: at the top dose activity change, negative = inhibition; O95149+P62826; actives 0.071% (n = 340,000); Biochemical FRET Rango-importin beta, RanGTP-induced dissociation; active means falling FRET ratio curve, often poorly fitted, with flat reads before Ran was added; inconclusive means other falling curves, or compound fluorescence or quenching; inactive means flat or rising ratio curve;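 also: potency is read from the fitted curve at half-maximal effect; % of control where 0% means no effect; nearly all actives have a fitted effect of over 45% in size; -100% = wells without RanGTP and RCC1; the record marks most hits as doubtful in a second field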
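Quantitative HTS using a FRET biosensor: 0.1 uM Rango, 0.25 uM importin beta, 0.6 uM Ran, 2 mM GTP, 0.2 uM RCC1 final, PBS with DTT, Tween-20 and BSA. Post-read taken 45 min after Ran addition.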
GLA inh pH 4.5 = inhibitors of human alpha-galactosidase A at pH 4.5 | 230,000 tested, under 10 active | AID 1467 | activity change, negative = inhibition, % at 105 µM | purified enzyme, 4-MU-alpha-Gal fluorescence, pH 4.5 | P06280; inconclusive = small, poorly fitted or top-dose-only inhibition, or a rising curve; inactive = flat fitted curve, though single readings scatter; no compound was filed as active;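 also: 0% = full activity with enzyme and -100% = basal without enzyme; dose as in the result columns while the protocol names 77 µM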
miR-21 FLuc = raises the signal of a miR-21 reporter | Potency, µM (titrated, usually from 38.3 µM), without a hit: at the highest dose reporter change, positive = more light | 340,000 tested, under 10 active | HeLa miR-21 FLuc reporter, luciferase, 48 h; active = well fitted rising curve with a large enough effect; inconclusive = small, poorly fitted or top-dose-only effect; inactive = no such curve, though single readings can be large or run the other way;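 also: % of control where 0% means no effect; miR-21 action dims this reporter so a rising signal means less miR-21 action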
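HeLa cells endogenously expressing miR-21, stably carrying CMV-driven firefly luciferase with a downstream miR-21 binding site, 2000 cells/well. Titrations up to approximately 40 uM, 48 hours; luciferase luminescence read.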
Rango-impB inh = Rango-importin beta binding inhibition | Rango CFP/YFP FRET sensor + importin beta, 45 min | Potency, µM (highest dose often 92.2 µM), for the others: top-dose inhibition of complex formation | actives 0.031% (n = 340,000); active = rising FRET ratio curve, often small or poorly fitted; inconclusive = mostly compound fluorescence or quenching in the first reads; inactive = flat curves in all reads;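 also: potency is read from the fitted curve at half-maximal effect; 0% = DMSO wells and 100% = buffer wells lacking importin beta; nearly all actives have a fitted effect of over 15% in size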
Target sequence (Q14974 whole entry, looked up): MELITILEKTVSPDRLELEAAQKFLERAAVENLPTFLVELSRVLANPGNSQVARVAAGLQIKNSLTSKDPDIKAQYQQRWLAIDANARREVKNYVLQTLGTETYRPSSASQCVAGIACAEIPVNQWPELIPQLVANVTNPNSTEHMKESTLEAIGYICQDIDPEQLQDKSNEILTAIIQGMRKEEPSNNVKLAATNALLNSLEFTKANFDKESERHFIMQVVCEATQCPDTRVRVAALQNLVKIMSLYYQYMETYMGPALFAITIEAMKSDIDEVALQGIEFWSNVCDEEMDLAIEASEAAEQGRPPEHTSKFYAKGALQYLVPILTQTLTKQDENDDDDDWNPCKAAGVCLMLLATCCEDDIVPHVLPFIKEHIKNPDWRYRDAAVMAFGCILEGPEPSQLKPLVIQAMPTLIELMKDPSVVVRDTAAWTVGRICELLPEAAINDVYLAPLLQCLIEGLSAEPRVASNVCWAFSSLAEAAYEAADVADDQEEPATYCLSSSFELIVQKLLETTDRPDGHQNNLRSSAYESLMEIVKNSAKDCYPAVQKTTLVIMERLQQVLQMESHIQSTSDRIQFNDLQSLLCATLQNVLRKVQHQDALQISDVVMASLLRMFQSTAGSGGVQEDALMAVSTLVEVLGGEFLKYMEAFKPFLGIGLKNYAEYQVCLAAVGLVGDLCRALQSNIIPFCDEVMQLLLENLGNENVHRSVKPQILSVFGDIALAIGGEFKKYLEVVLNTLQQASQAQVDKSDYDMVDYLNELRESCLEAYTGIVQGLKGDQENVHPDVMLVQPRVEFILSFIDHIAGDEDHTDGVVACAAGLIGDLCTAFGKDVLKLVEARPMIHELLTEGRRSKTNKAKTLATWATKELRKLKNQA
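FRET biosensor Rango (snurportin 1 IBB between N-terminal EYFP and C-terminal Cerulean), 50 nM in PBS/1 mM DTT/0.02% Tween-20/0.1% BSA, preincubated 5 min RT with compound; 0.125 microM importin beta added, 45 min RT, CFP/YFP FRET ratio read.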
Active calls of the source: *; ? = inconclusive; . = not tested or not shown; & = joins results of further samples. Some of the compounds tested; the hit share may differ from the screen's.

SMILES	Rango release inh	GLA inh pH 4.5	miR-21 FLuc	Rango-impB inh
Cc1ccc(C(=O)c2cc(Br)ccc2N)cc1	0%	0	-46%	0.4%
C/C(=N\N1CCCCCC1)c1c(O)n(C2CCCCC2)c(=O)[nH]c1=O	-8%	-7	-19%	-6.7%
CC1CCCC(NC(=O)CNC(=S)N2CC3CC(C2)c2cccc(=O)n2C3)C1C (stereo not drawn)	0%	.	-2%	-4.7%
O=C(CN1C2CCC1CC(O)(c1cccnc1)C2)Nc1ccc2c(c1)OCO2 (stereo not drawn)	-15%	-2	-11%	-5.3%
Cc1nccn1Cc1ccc(Cl)nc1	-4%	-5	1%	-2.7%
Cc1ccc2c(c1)C(c1ccccc1)=NCC(=O)N2C	-22%	.	.	-0.7%
Cc1ccc(CCN2CC(C(=O)N3CCC4(CC3)OCCO4)CC2=O)cc1 (stereo not drawn)	-4%	-8	-2%	-0.1%
O=C(CN1CC=C(c2ccccc2)CC1)Nc1c(Cl)cccc1Cl	12%	10	-1%	-4.8%
C=C1C(=O)O[C@@H]2C[C@@H](C)[C@@H]3C=CC(=O)[C@@]3(C)[C@@H](OC(=O)CC(=O)O[C@H]3[C@@H]4C(=C)C(=O)O[C@@H]4C[C@@H](C)[C@@H]4C=CC(=O)[C@]43C)[C@H]12	-1%	-3	?	0.9%
O=C1NC(=O)C2(Cc3c(nc4ccccn4c3=O)N3CCCCCC32)C(=O)N1Cc1ccccc1 (stereo not drawn)	-9%	12	2%	-6.6%
N#Cc1ccccc1OCC(=O)N1CCN(CC(=O)Nc2ccc(F)cc2)CC1	-11%	.	.	-1.6%
O=C(CN1CCN(CCO)CC1)Nc1ccc(Cl)cc1C(=O)c1ccccc1	-2%	-1	1%	-1.6%
CC(=O)C1C(N2CC2)CC2C3CC=C4CC(O)CCC4(C)C3CCC21C (stereo not drawn)	0%	.	.	2.0%
CC(=O)CC(C)(C)n1c[n+](C)nn1	11%	5	-1%	-1.1%
CCn1c(O)c(/C=N/NC(=O)c2ccncc2)c(=O)[nH]c1=S	?	6	5%	?
CCN1C[C@]2(CO)CC[C@H](OC)[C@@]34C5C[C@H]6[C@H](OC)C5[C@](O)(C[C@H]6OC)[C@@H](C(OC)C23)[C@@H]14 (stereo partly drawn)	-10%	.	.	-0.6%
CC1(CCl)CN1S(=O)(=O)c1ccccc1 (stereo not drawn)	5%	2	0%	-1.9%
O=C(O)c1cc(Oc2ccc(C(F)(F)F)cc2Cl)ccc1[N+](=O)[O-]	1%	.	.	?
CC1=C(N2CC2)C(=O)C(CO)=C(N2CC2)C1=O	10%	.	.	-1.9%
COC(=O)C1=C(c2cccc(C#N)c2)C[C@@H]2CC[C@H]1N2C(=O)NCc1cccc2ccccc12	2%	.	.	-1.6%
CCOC(=O)/C(CCCN(CC)CC)=N\O	1%	-4	-4%	1.7%
CCOc1ccc(-c2c(C)n(-c3ccc(OCC)cc3)c3[n+]2CCCCC3)cc1	17%	-4	?	-3.4%
COc1cc(Cn2c(N)c(C(=O)NCc3ccco3)c3nc4ccccc4nc32)cc(OC)c1OC	?	18	16%	?
CNC(=O)OCCc1n(C)cc[n+]1C	30%	0	-1%	-0.8%
C=Cn1c(P(=S)(N2CCOCC2)N2CCOCC2)cc2c1CCCC2	6%	-2	-9%	1.5%
CCCCc1nc2ccccc2c(=O)n1-c1ccccc1[N+](=O)[O-]	7%	-1	-4%	-1.6%
CNC(=O)Oc1cccc2c1OC(C)(C)O2	3%	-2	.	2.6%
ClC(Cl)=C(c1ccc(Cl)cc1)c1ccc(Cl)cc1	-7%	0	.	3.3%
COc1ccc(C2=NCC(=S)Nc3ccc(Cl)cc32)cc1OC	0%	.	.	-2.6%
c1ccc(Nc2ccc(Nc3ccccc3)cc2)cc1	-9%	.	.	0.3%

4 of the compounds above, with two lines to a compound.
Results follow in this order: Rango release inh, GLA inh pH 4.5, miR-21 FLuc, Rango-impB inh
- CCOC(=O)/C(CCCN(CC)CC)=N\O
    1%, -4, -4%, 1.7%
- COc1cc(Cn2c(N)c(C(=O)NCc3ccco3)c3nc4ccccc4nc32)cc(OC)c1OC
    ?, 18, 16%, ?
- COc1ccc(C2=NCC(=S)Nc3ccc(Cl)cc32)cc1OC
    0%, ., ., -2.6%
- CNC(=O)Oc1cccc2c1OC(C)(C)O2
    3%, -2, ., 2.6%

Other results follow.
SMILES	Rango release inh	GLA inh pH 4.5	miR-21 FLuc	Rango-impB inh
COc1ccccc1C1=NCc2nnc(CSC)n2-c2ccc(Cl)cc21	-14%	.	.	1.2%
CCN(CC)c1ccc(/C=C2\C(=O)NC(=S)N(c3ccc(OC)cc3OC)C2=O)o1	19%	.	.	?
Cc1ccsc1-c1nc(CSCC(=O)N2CCC3(CC2)OCCO3)c(C)o1	8%	-4	-1%	0.4%
O=C(Nc1ccc(OC(=O)N2CCCC2)cc1)N1CCOCC1	1%	-15	1%	6.0%
COc1ccccc1CN1CCN(C(=O)COc2cccc(C)c2)CC1	-14%	-1	-15%&-10%	6.4%
CN1CC[C@]23c4c5ccc(O)c4OC2[C@H](O)C=CC3[C@H]1C5 (stereo partly drawn)	12%	.	.	-0.9%
CC(N)Cc1ccccc1Sc1ccc(O)cc1 (stereo not drawn)	.	4	0%	.
COP(=S)(OC)Oc1ccc(SC)c(C)c1	3%	0	.	?
COc1ccc(CCNC(=O)c2c(N)n(CCN3CCOCC3)c3nc4ccccc4nc23)cc1OC	?	8	20%	?
COc1cccc(C2(O)CCN(CC(=O)Nc3nc(C)cs3)CC2)c1	-11%	6	0%	3.0%
COC(=O)C1=C(c2ccc(F)cc2OCc2ccccc2)C[C@@H]2CC[C@H]1N2C(=O)N1CCCC1	7%	.	.	-1.2%
O=C(CCC(=O)N1CC2C[C@@H](C1)Cn1c2cccc1=O)NCCc1ccccc1	-7%	.	-2%	-1.0%
C[C@@H]1CC[C@@]2(NC1)O[C@H]1C[C@H]3[C@@H]4CC=C5C[C@@H](O)CC[C@]5(C)[C@H]4CC[C@]3(C)[C@H]1[C@@H]2C	3%	.	-1%	1.4%
CNC(=S)NC1CC2CCCC(C1)N2CC(C)C (stereo not drawn)	0%	4	0%	0.0%
O=C(COC(=O)c1ccc(O)cc1)Nc1ccc(Cl)cc1C(=O)c1ccccc1	-10%	-10	-4%	2.5%

Full records, looked up by structure:
`O=C(COC(=O)c1ccc(O)cc1)Nc1ccc(Cl)cc1C(=O)c1ccccc1` across the screens: Rango release inh = -10%; GLA inh pH 4.5 = -10; miR-21 FLuc = -4%; Rango-impB inh = 2.5%
`CN1CC[C@]23c4c5ccc(O)c4OC2[C@H](O)C=CC3[C@H]1C5` (stereo partly drawn) across the screens: Rango release inh = 12%; GLA inh pH 4.5 = .; miR-21 FLuc = .; Rango-impB inh = -0.9%

Continuation.
SMILES	Rango release inh	GLA inh pH 4.5	miR-21 FLuc	Rango-impB inh
CCOCC(=O)NC1CCSC1=O (stereo not drawn)	-3%	-1	-4%	0.0%
Cc1ccc(S(=O)(=O)NCC(=O)OCC(=O)N2N=C(c3ccc(Cl)cc3)CC2c2ccco2)cc1C (stereo not drawn)	25%	-8	-10%	-14%
CC(C)(c1ccc(O)cc1)c1ccc(O)cc1	35%	.	-10%	0.8%
CN1CCN(Cc2cn(C)c3ccccc23)CC1CCO (stereo not drawn)	0%	.	-8%	?
CN1CCC2(CC1)c1ccccc1-c1ccccc12	30%	.	.	10%
CC(=O)Nc1ccc([As](=O)(O)c2ccc([N+](=O)[O-])cc2)cc1	-9%	1	-1%	-4.0%
Cn1cc(C=C2C(=O)NC(=O)NC2=O)c2ccccc21	-9%	.	1%	?
O=c1[nH]c(=S)n(Cc2ccc(F)cc2)c(O)c1C=NCc1ccc2c(c1)OCO2	-3%	-1	-7%	-0.5%
Cc1cc(OCc2nn[nH]n2)c2c3c(c(=O)oc2c1)CCC3	-13%	11	-2%	1.2%
Cc1ccc(OCC(=O)N2CCN(C3CCC(c4ccccc4)CC3)CC2)cc1 (stereo not drawn)	13%	1	3%	0.5%
CC(=O)c1c(C)n(CCCOC(C)C)c2ccc(O)cc12	-8%	6	2%	0.7%
O=c1[nH]c(=S)n(CCC2=CCCCC2)c(O)c1C=NCc1cccnc1	.	-4	4%	.
COc1ccccc1-n1c(-c2ccccc2F)nc2ccccc2c1=O	-23%	.	.	-0.4%
COc1ccc(CC2C(=O)NC(=O)N(c3ccccc3)C2=O)c(OC)c1 (stereo not drawn)	-13%	4	0%	-6.8%
O=C1NC(=O)C(=Cc2ccc3c(c2)OCO3)C(=O)N1	.	-24	-2%	.
COC(=O)C1=C(c2ccc(OC(F)(F)F)cc2)C[C@@H]2CC[C@H]1N2C(=O)N1CCCCC1	2%	.	.	3.1%
CC(O)(CS(=O)(=O)c1cccc(C(F)(F)F)c1)C(=O)Nc1ccc(C(F)(F)F)cc1 (stereo not drawn)	1%	-10	4%	-0.6%
COC(=O)C1=C(c2ccccc2)C[C@@H]2CC[C@H]1N2C(=O)NCc1ccc(C(F)(F)F)cc1	17%	.	.	-0.6%
COCCCn1c(N)c(C(=O)NCCC(C)C)c2nc3ccccc3nc21	?	6	8%	?
N#CC(C#N)=NNc1ccc(S(N)(=O)=O)cc1	1%	-7	-2%	-0.7%
CCN(CCO)c1ccc(N=Cc2c(O)n(C)c(=S)[nH]c2=O)cc1	?	7	-20%	?
CCOC(=O)c1ccccc1NC(=O)c1c(O)[nH]c(=S)[nH]c1=O	-3%	.	.	-0.6%
O=Cc1c(C(=O)O)n(Cc2ccc(F)cc2Cl)c2ccccc12	-23%	.	3%	0.0%
CCCNC(=O)N1[C@H]2CC[C@@H]1C(C(=O)OC)=C(c1cc3ccccc3o1)C2	-6%	.	.	-4.8%
COC(=O)C1=C(c2ccc(F)cc2OCc2ccccc2)C[C@@H]2CC[C@H]1N2C(=O)NCCO	19%	.	.	-3.0%
COc1ccc(N2C(=O)CS(=O)C(c3ccccc3)C2=O)cc1 (stereo not drawn)	0%	1	-35%	-2.5%
O=[N+]([O-])c1ccc2c(c1)Cc1cc(O)ccc1-2	-1%	.	.	5.6%
COc1ccc(O)c(C(C)(C)C)c1	5%	-10&4	0%	-0.9%
Cn1cccc1/C=C1/C(=O)NC(=O)N(Cc2ccc(F)cc2)C1=O	-12%	4	5%	2.7%
CCN(CC)C(=O)c1ccc(NC(=O)CCCSc2ccccc2)cc1	14%	6	1%	0.3%
CC(C)Sc1nnc([C@@H](N)Cc2ccccc2)o1	-18%	-10	-18%	1.8%
NC(=O)c1cn(C2OC(CO)C(O)C2O)c2ncnc(N)c12 (stereo not drawn)	12%&-12%	9	28%	1.3%&-0.4%
Nc1ccc2ccc3cccc[n+]3c2c1	?	.	4%	?
COC(=O)C1=C(c2ccc(C(C)=O)cc2)C[C@@H]2CC[C@H]1N2C(=O)NCc1ccc(C(F)(F)F)cc1	15%	.	.	-2.5%
CCN(CC(=O)Nc1ccc(NC(C)=O)cc1)C(=O)CSC(c1ccccc1)c1ccccc1	6%	.	.	-2.0%
Cc1nc2ccc(Cl)cc2c(-c2ccccc2)c1C(=O)O	-3%	4	-1%	1.5%
CCOC(=O)C1CCN(/C=C2/C(=O)NC(=O)N(c3cccc(C)c3C)C2=O)CC1	8%	-4	1%	-4.3%
COC(=O)C1=C(c2ccc(F)cc2OCc2ccccc2)C[C@@H]2CC[C@H]1N2C(=O)N1CCOCC1	-5%	.	.	0.6%
CCOC(=O)CC1=C(C(=O)OCC)C2(C(=O)Nc3ccccc32)C(C#N)=C(N)O1 (stereo not drawn)	9%	3	-1%	-4.6%
Cc1nc2ccccc2c2c1C(=O)N(Cc1cccnc1)C2=O	19%	6	-2%	?
Clc1ccc(C(c2ccccc2)c2ncc[nH]2)cc1 (stereo not drawn)	3%	2	-4%	1.5%
COc1ccc2cc(C(=O)C3CCCN(C4CCOCC4)C3)ccc2c1 (stereo not drawn)	-17%	5	8%	0.1%
OC(CNC1CCCCC1)c1ccccc1 (stereo not drawn)	37%	7	-15%	-0.8%
C/C(=N\N1CCN(C)CC1)c1c(O)n(Cc2ccccc2)c(=O)[nH]c1=O	7%	8	2%	2.0%
CCSP1(=S)N=C(N2CCOCC2)C(C#N)=C2CCCN21 (stereo not drawn)	12%	0	-10%	1.2%
